Vaccinia inh: blocks a specific stage of Vaccinia orthopoxvirus infection, primary screen, cell-based, single point. Vaccinia-infected cells, mCherry/Venus stage reporter fluorescence; active compounds read low; some inactives read as strong as hits. activity change (mCherry), % (test concentration not listed). 89,000 tested, 0.01% active. AID 1053133, 2014;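 active means mCherry past -33% and 40 or more points under the early reporter, replicates agreeing; inconclusive means past -33% without that gap or agreement; tested in A549 cells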;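 further: scaled between vehicle wells and reference inhibitor wells; 23 nL library stock went into each well; one replicate is shown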
Vaccinia inh Venus: also measured in Vaccinia inh; calls as there; activity change (Venus), %; measured here: Venus reporter, other viral stage;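 negative = less Venus signal; first of two replicates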
The depositor's hits bear a star.

For Cc1noc(C)c1S(=O)(=O)Nc1ccc2c(c1)CC(=O)N([C@H](C)CO)C[C@@H](C)[C@@H](CN(C)C(=O)NC(C)C)O2 the results were Vaccinia inh 23 and Vaccinia inh Venus 12.
`CCC(=O)N[C@H]1CC[C@H](CC(=O)NCc2ccccc2F)O[C@H]1CO` gave Vaccinia inh 11 and Vaccinia inh Venus 2.
`CN(C)C(=O)C[C@H]1C[C@@H]2c3cc(NC(=O)c4cccnc4)ccc3O[C@@H]2[C@@H](CO)O1` gave Vaccinia inh 8 and Vaccinia inh Venus 13.
`C[C@H]1CN([C@@H](C)CO)C(=O)Cc2cc(NS(=O)(=O)c3ccc(Cl)cc3)ccc2O[C@@H]1CN(C)C` gave Vaccinia inh 5 and Vaccinia inh Venus 4.
CO[C@H]1CC[C@H]2CCN(C)C(=O)[C@@H](C)N(C)C(=O)c3cccc(C#N)c3OC[C@H]1O2 was read as Vaccinia inh 27 and Vaccinia inh Venus 13.
Screening C[C@@H]1CN([C@@H](C)CO)C(=O)Cc2cc(NS(=O)(=O)c3ccc(F)cc3)ccc2O[C@H]1CN(C)C returned Vaccinia inh 2 and Vaccinia inh Venus 5.
For N#C[C@@H]1[C@H](c2ccccc2-c2ccc(F)cc2)[C@H](CO)N1C(=O)NC1CCCCC1 the results were Vaccinia inh -7 and Vaccinia inh Venus -7.
Cc1noc(C)c1NC(=O)N[C@@H]1CC[C@H](CCNC(=O)C2CCOCC2)O[C@@H]1CO was read as Vaccinia inh -11 and Vaccinia inh Venus -12.
For C[C@H]1CN([C@@H](C)CO)C(=O)c2cc(NS(=O)(=O)c3ccccc3)ccc2O[C@@H]1CN(C)CC1CC1 the results were Vaccinia inh 25 and Vaccinia inh Venus 18.
For C[C@H]1CN([C@@H](C)CO)C(=O)c2cc(C#CC3CC3)cnc2O[C@H]1CN(C)C the results were Vaccinia inh 10 and Vaccinia inh Venus 1.
`COc1ccc(S(=O)(=O)Nc2ccc3c(c2)C(=O)N([C@@H](C)CO)C[C@H](C)[C@@H](CN(C)C(=O)Nc2c(C)noc2C)OCCCC[C@H](C)O3)cc1` gave Vaccinia inh 25 and Vaccinia inh Venus 16.
C[C@@H]1CN([C@@H](C)CO)C(=O)Cc2cc(NC(=O)Cc3ccccc3)ccc2O[C@H]1CN(C)Cc1ccc(C(=O)O)cc1 was read as Vaccinia inh 21 and Vaccinia inh Venus 11.
C[C@H](NC(=O)C[C@@H]1CC[C@@H]2[C@H](COC[C@H](O)CN2Cc2ccc(C(F)(F)F)cc2)O1)c1ccccc1 was read as Vaccinia inh inconclusive.
`COc1ccc(NC(=O)Nc2ccc3c(c2)C(=O)N([C@H](C)CO)C[C@H](C)[C@@H](CN(C)C(=O)Nc2ccc(OC)cc2)OCCCC[C@@H](C)O3)cc1` gave Vaccinia inh 37 and Vaccinia inh Venus 10.
Cc1noc(C)c1S(=O)(=O)N(C)C[C@@H]1Oc2ccc(NC(=O)CCCCCC(=O)Nc3ccccc3N)cc2CC(=O)N([C@@H](C)CO)C[C@@H]1C was read as Vaccinia inh -5 and Vaccinia inh Venus 0.
Screening CCCNC(=O)N(C)C[C@@H]1Oc2ncc(C#C[C@@H](C)O)cc2C(=O)N([C@@H](C)CO)C[C@H]1C returned Vaccinia inh 14 and Vaccinia inh Venus 8.
Screening Cc1noc(C)c1NC(=O)N(C)C[C@@H]1Oc2ccc(NC(=O)CCN3CCOCC3)cc2C(=O)N([C@@H](C)CO)C[C@@H]1C returned Vaccinia inh 7 and Vaccinia inh Venus -5.
For O=C(NCC[C@@H]1CC[C@@H](NS(=O)(=O)c2ccccc2)[C@H](CO)O1)c1ccccc1F the results were Vaccinia inh 3 and Vaccinia inh Venus 2.
`C[C@@H]1CN([C@@H](C)CO)C(=O)c2cccc(NS(=O)(=O)c3ccc(Cl)cc3)c2O[C@@H]1CN(C)Cc1ccc(C(=O)O)cc1` gave Vaccinia inh -35 and Vaccinia inh Venus -41.
For C[C@@H]1CCCCO[C@@H](CN(C)Cc2ccncc2)[C@H](C)CN([C@H](C)CO)C(=O)c2cc(NC(=O)c3ccccc3)ccc2O1 the results were Vaccinia inh -7 and Vaccinia inh Venus -6.
For CC(C)NC(=O)Nc1ccc2c(c1)CC(=O)N([C@H](C)CO)C[C@@H](C)[C@@H](CN(C)C(=O)Nc1cccc3ccccc13)O2 the results were Vaccinia inh 9 and Vaccinia inh Venus 11.
`CN(C)CCCNC(=O)[C@H]1[C@H](CO)[C@H]2Cn3c(ccc(-c4cccnc4)c3=O)[C@@H]1N2C(=O)CC1CC1` gave Vaccinia inh 8 and Vaccinia inh Venus 0.
CN1C(=O)c2cc(NS(C)(=O)=O)ccc2OC[C@@H]2O[C@H](CC(=O)NCc3ccc(-c4ccccc4)cc3)CC[C@@H]21 was read as Vaccinia inh inconclusive.
For C[C@H](CO)N1C[C@H](C)[C@H](CN(C)CC2CCOCC2)Oc2ncc(C#Cc3ccccn3)cc2C1=O the results were Vaccinia inh 23 and Vaccinia inh Venus 19.
For COc1ccc(CN(C)C[C@@H]2OCCCC[C@H](C)Oc3ccc(NS(C)(=O)=O)cc3C(=O)N([C@@H](C)CO)C[C@H]2C)cc1 the results were Vaccinia inh -4 and Vaccinia inh Venus 6.
`O=C(C[C@H]1CC[C@H]2[C@@H](COC[C@H](O)CN2CC2CCOCC2)O1)NCC1CC1` gave Vaccinia inh -5 and Vaccinia inh Venus 0.
CCNC(=O)[C@@H]1[C@@H](CO)[C@@H]2Cn3c(ccc(/C=C/c4ccccc4)c3=O)[C@@H]2N1C(C)=O was read as Vaccinia inh 14 and Vaccinia inh Venus 5.
For C[C@@H]1CCCCO[C@H](CN(C)Cc2ccccc2)[C@@H](C)CN([C@H](C)CO)C(=O)c2cc(NC(=O)Nc3ccc(F)cc3)ccc2O1 the results were Vaccinia inh -17 and Vaccinia inh Venus -4.
Screening COc1ccc(S(=O)(=O)N(C)C[C@H]2OCCCC[C@@H](C)Oc3ccc(NC(=O)Nc4cccc5ccccc45)cc3C(=O)N([C@@H](C)CO)C[C@@H]2C)cc1 returned Vaccinia inh 7 and Vaccinia inh Venus 5.
Screening C[C@@H]1CCCCO[C@H](CN(C)Cc2ccc(C(=O)O)cc2)[C@H](C)CN([C@H](C)CO)C(=O)c2cc(NS(C)(=O)=O)ccc2O1 returned Vaccinia inh 15 and Vaccinia inh Venus 4.
For O=C(CC1CC1)Nc1ccc2c(c1)[C@H]1C[C@@H](CC(=O)N3CCc4ccccc4C3)O[C@H](CO)[C@H]1O2 the results were Vaccinia inh -7 and Vaccinia inh Venus 4.
`CO[C@H]1CN(C)C(=O)c2ccc(NS(=O)(=O)c3ccccc3)cc2OC[C@@H](C)N(Cc2cccnc2)C[C@H]1C` gave Vaccinia inh 9 and Vaccinia inh Venus 13.
For C[C@H](CO)N1C[C@H](C)[C@H](CN(C)Cc2ccccc2)OCCCC[C@H](C)Oc2ccc(NC(=O)NC3CCCCC3)cc2C1=O the results were Vaccinia inh inconclusive.
COc1ccc(NC(=O)Nc2ccc3c(c2)C(=O)N([C@@H](C)CO)C[C@H](C)[C@H](CN(C)C(=O)Nc2ccc(F)cc2)OCCCC[C@@H](C)O3)cc1 was read as Vaccinia inh 5 and Vaccinia inh Venus 3.
`CN(C)C(=O)c1ccc(-c2ccc([C@@H]3[C@H](CO)N4CCCCN(CC5CC5)C[C@@H]34)cc2)cc1` gave Vaccinia inh 20 and Vaccinia inh Venus 9.
Screening C[C@@H]1CN([C@@H](C)CO)S(=O)(=O)c2ccc(C#CCC3CCCC3)cc2O[C@@H]1CN(C)Cc1ccc(C(=O)O)cc1 returned Vaccinia inh -4 and Vaccinia inh Venus -3.
`C[C@H]1CN([C@@H](C)CO)C(=O)c2cc(NC(=O)NC3CCCCC3)ccc2O[C@H]1CN(C)CC1CCCCC1` gave Vaccinia inh -15 and Vaccinia inh Venus -10.
Cc1noc(C)c1NC(=O)N(C)C[C@H]1Oc2ccc(NS(C)(=O)=O)cc2C(=O)N([C@@H](C)CO)C[C@H]1C was read as Vaccinia inh 15 and Vaccinia inh Venus 9.
Screening C[C@H]1CN([C@@H](C)CO)C(=O)Cc2cc(NC(=O)Nc3ccccc3)ccc2O[C@H]1CN(C)Cc1ccc(Cl)c(Cl)c1 returned Vaccinia inh inconclusive.
`O=C(CCN1CCCCC1)NCC[C@H]1CC[C@@H](NC(=O)C2CCCCC2)[C@H](CO)O1` gave Vaccinia inh 1 and Vaccinia inh Venus 4.
CC(C)c1cn(CC[C@H]2CC[C@H](NS(=O)(=O)c3ccc(F)cc3)[C@H](CO)O2)nn1 was read as Vaccinia inh 32 and Vaccinia inh Venus 18.
For COc1ccccc1CNC(=O)C[C@@H]1C[C@H]2c3cc(N(C)C)ccc3O[C@H]2[C@@H](CO)O1 the results were Vaccinia inh 3 and Vaccinia inh Venus 16.
`Cc1noc(C)c1S(=O)(=O)Nc1ccc2c(c1)C(=O)N([C@@H](C)CO)C[C@H](C)[C@H](CN(C)C)OCCCC[C@@H](C)O2` gave Vaccinia inh 17 and Vaccinia inh Venus 9.
`COc1ccc2c3c(n(C)c2c1)[C@@H](CO)N(Cc1ccncc1)CC31CN(C(=O)Nc2cccc(F)c2)C1` gave Vaccinia inh 2 and Vaccinia inh Venus 0.
For C[C@H]1CN([C@@H](C)CO)C(=O)c2cc(NC(=O)C3CC3)ccc2O[C@H]1CN(C)Cc1ccc(C(F)(F)F)cc1 the results were Vaccinia inh -13 and Vaccinia inh Venus -8.

Fetched one by one from the entries so far:
For COc1ccc(CN(C)C[C@@H]2OCCCC[C@H](C)Oc3ccc(NS(C)(=O)=O)cc3C(=O)N([C@@H](C)CO)C[C@H]2C)cc1 the results were Vaccinia inh -4 and Vaccinia inh Venus 6.
C[C@H](NC(=O)C[C@@H]1CC[C@@H]2[C@H](COC[C@H](O)CN2Cc2ccc(C(F)(F)F)cc2)O1)c1ccccc1 was read as Vaccinia inh inconclusive.
Cc1noc(C)c1NC(=O)N[C@@H]1CC[C@H](CCNC(=O)C2CCOCC2)O[C@@H]1CO was read as Vaccinia inh -11 and Vaccinia inh Venus -12.
For O=C(NCC[C@@H]1CC[C@@H](NS(=O)(=O)c2ccccc2)[C@H](CO)O1)c1ccccc1F the results were Vaccinia inh 3 and Vaccinia inh Venus 2.
`C[C@H]1CN([C@@H](C)CO)C(=O)c2cc(NC(=O)NC3CCCCC3)ccc2O[C@H]1CN(C)CC1CCCCC1` gave Vaccinia inh -15 and Vaccinia inh Venus -10.
`C[C@H]1CN([C@@H](C)CO)C(=O)Cc2cc(NS(=O)(=O)c3ccc(Cl)cc3)ccc2O[C@@H]1CN(C)C` gave Vaccinia inh 5 and Vaccinia inh Venus 4.
CO[C@H]1CC[C@H]2CCN(C)C(=O)[C@@H](C)N(C)C(=O)c3cccc(C#N)c3OC[C@H]1O2 was read as Vaccinia inh 27 and Vaccinia inh Venus 13.

Continuation:
C[C@H](NC(=O)[C@@H]1[C@@H](CO)[C@@H]2Cn3c(ccc(-c4ccccc4F)c3=O)[C@H]1N2C)c1ccccc1 was read as Vaccinia inh 3 and Vaccinia inh Venus 5.
`C[C@@H]1CN([C@H](C)CO)S(=O)(=O)c2ccc(C#Cc3ccc(F)cc3)cc2O[C@@H]1CN(C)C(=O)NC1CCCCC1` gave Vaccinia inh inconclusive.
`C[C@H]1CN([C@@H](C)CO)C(=O)c2cc(-c3cncnc3)cnc2O[C@@H]1CN(C)CC1CCOCC1` gave Vaccinia inh 6 and Vaccinia inh Venus 5.
`CO[C@H]1CN(C)C(=O)c2cc(NC(=O)c3ccno3)ccc2OC[C@@H](C)NC[C@@H]1C` gave Vaccinia inh 4 and Vaccinia inh Venus 26.
Screening CN(C)C(=O)[C@@H]1[C@@H](CO)[C@@H]2Cn3c(ccc(-c4ccccc4F)c3=O)[C@H]1N2C(=O)c1cccnc1 returned Vaccinia inh -2 and Vaccinia inh Venus 2.
`C[C@@H]1CN([C@H](C)CO)C(=O)c2cc(NC(=O)NC3CCCCC3)ccc2O[C@@H](C)CCCCO[C@@H]1CN(C)Cc1ccc(Cl)c(Cl)c1` gave Vaccinia inh -18 and Vaccinia inh Venus -9.
For CCC(=O)N(C)C[C@@H]1Oc2cc(/C=C/c3ccccc3)ccc2S(=O)(=O)N([C@H](C)CO)C[C@H]1C the results were Vaccinia inh inconclusive.
Screening CN1C(=O)c2cc(NC(=O)Nc3ccc(Cl)cc3)ccc2OC[C@@H]2O[C@H](CC(=O)O)CC[C@@H]21 returned Vaccinia inh 4 and Vaccinia inh Venus 3.
Screening C[C@H](CO)N1C[C@H](C)[C@@H](CN(C)C(=O)Nc2cccc(F)c2)Oc2ncc(C3=CCCCC3)cc2C1=O returned Vaccinia inh -5 and Vaccinia inh Venus -9.
N#C[C@@H]1[C@@H](c2ccc(C#Cc3cccc(F)c3)cc2)[C@H](CO)N1C(=O)C1CCCC1 was read as Vaccinia inh inconclusive.
CCOC(=O)N(C)C[C@H]1OCc2cn(nn2)CCCC(=O)N([C@H](C)CO)C[C@H]1C was read as Vaccinia inh 15 and Vaccinia inh Venus 7.
For CN(C)CC(=O)Nc1ccc2c(c1)[C@H]1C[C@H](CC(=O)NCCc3ccccc3)O[C@H](CO)[C@H]1O2 the results were Vaccinia inh -3 and Vaccinia inh Venus -5.
For O=C(NC[C@@H]1[C@@H](c2ccccc2)[C@@H](CO)N1C(=O)C1CC1)NC1CCCC1 the results were Vaccinia inh 28 and Vaccinia inh Venus 30.
Screening Cc1ccccc1-c1ccc([C@@H]2[C@H](CO)N3CCCCN(C(=O)Nc4ccccc4)C[C@@H]23)cc1 returned Vaccinia inh inconclusive.
Screening O=C(O)C[C@H]1CC[C@@H](NC(=O)Nc2cc(F)ccc2F)[C@@H](CO)O1 returned Vaccinia inh 4 and Vaccinia inh Venus 1.
For C[C@@H]1CN([C@H](C)CO)C(=O)Cc2cc(NC(=O)C3CC3)ccc2O[C@H]1CN(C)C(=O)Nc1cccc2ccccc12 the results were Vaccinia inh 9 and Vaccinia inh Venus 10.

Source: PubChem

These rows are one share of the data (hit frequency here may not be typical).
